AmpC nodet inh – Promiscuous and Specific Inhibitors of AmpC Beta-Lactamase (assay without detergent). Potency, µM (doses to about 28.7 µM), without a hit: at the top dose activity change, negative = inhibition. AID 585, 2007. hit rate 1.8% among 71,000. AmpC nitrocefin hydrolysis, absorbance 480 nm, no detergent; potencies from a single point are estimates; active = falling curve, for most hits resting on a single point; inconclusive = weak or doubtful change; inactive = flat or rising curve; further: % of control where 0% means no effect; about half of the hits show no inhibition at the top dose; a quarter of the inactives give rising signals
Target sequence (P00811 whole entry, looked up): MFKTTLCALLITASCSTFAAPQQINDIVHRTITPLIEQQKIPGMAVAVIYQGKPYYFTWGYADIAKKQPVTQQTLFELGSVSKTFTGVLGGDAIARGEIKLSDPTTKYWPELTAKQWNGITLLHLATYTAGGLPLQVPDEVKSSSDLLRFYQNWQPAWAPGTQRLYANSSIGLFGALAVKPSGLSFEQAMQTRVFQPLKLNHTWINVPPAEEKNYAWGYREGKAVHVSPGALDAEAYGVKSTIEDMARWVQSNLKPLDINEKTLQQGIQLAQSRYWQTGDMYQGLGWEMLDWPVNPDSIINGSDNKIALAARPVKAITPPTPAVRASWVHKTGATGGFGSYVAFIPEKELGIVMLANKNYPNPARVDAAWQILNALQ
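Enzyme, pH 7.0 phosphate. Compound titrations were pre-incubated with AmpC for 15 min at room temperature before nitrocefin (stock 800 uM) addition; product formation was recorded at 480 nm every 20 s for 4 min.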
Numbers without * were called inactive; & = joins results of further samples; [ ] = remark or other dose. Potency means the concentration at half of the fitted maximal effect.

SMILES	AmpC nodet inh
O=C(Cn1ncc2c1-c1ccccc1OC2)Nc1ccc(S(=O)(=O)N2CCCCC2)cc1	-5%
O=C(Cn1cnc2c(cnn2-c2ccc(F)cc2)c1=O)NCCc1ccccc1	5%
O=C1CC(c2ccco2)Cc2nc(N3CCN(Cc4ccc5c(c4)OCO5)CC3)ncc21 (stereo not drawn)	58%
CCC(C)n1c(-c2cccs2)nc2nc3ccccc3nc21 (stereo not drawn)	40%
CCOC(=O)c1[nH]c(C)c(C(=O)NCc2ccc(Cl)cc2)c1C	-2%
Cc1nc2ccccn2c1/C(O)=C1\C(=O)C(=O)N(CCN(C)C)C1c1cccnc1 (stereo not drawn)	9%
CCN1C(=O)c2cccc3c(NC(=O)c4ccc(S(=O)(=O)N(C)C)cc4)ccc1c23	99%
CCOC(=O)/C(N=O)=C(\O)C1CCN(C(=O)OCC)CC1	-5%
Cc1sc2ccccc2c1CC1=NCCN1	0%
O=C(Nc1ccc(N2CCCCC2)cc1)c1cncc(Br)c1	-12%

Another view of some results above:
O=C(Cn1cnc2c(cnn2-c2ccc(F)cc2)c1=O)NCCc1ccccc1
  AmpC nodet inh = 5%
CCN1C(=O)c2cccc3c(NC(=O)c4ccc(S(=O)(=O)N(C)C)cc4)ccc1c23
  AmpC nodet inh = 99%

Next compounds.
SMILES	AmpC nodet inh
CCOP(=S)(OCC)Oc1ccc([N+](=O)[O-])cc1	-4%&-6%
O=C(COc1ccc2c(c1)C(=O)CC1(CCCCC1)O2)NCc1ccccn1	62%
CC(=O)N1CCN(c2ccc(N=Cc3c(O)n(Cc4ccccc4)c(=O)[nH]c3=O)cc2)CC1	131%
CC1=C(C(=O)Nc2ccc(F)cc2)C(c2ccc(C)o2)C2=C(CC(C)(C)CC2=O)N1 (stereo not drawn)	20%
COc1ccc(C2CCN(Cc3cccnc3)CC2O)cc1 (stereo not drawn)	12%
Cc1ccccc1OCc1nnc(SCC(=O)NCc2ccccc2)n1C	50%
O=C(c1ccco1)N1CCC2(CCN(Cc3cc(C(F)(F)F)cc(C(F)(F)F)c3)CC2)CC1	104%
Cc1cccc(C)c1NC(=O)N1CC=C(n2c(=O)[nH]c3ccccc32)CC1	31%
Cc1cc2n(n1)C(c1ccc(N(C)C)cc1)Nc1ccccc1-2 (stereo not drawn)	27%
O=C1CC(CCC(=O)NC2CC2)c2ccccc2N1 (stereo not drawn)	-3%
COc1ccccc1CCNC(=O)c1ccoc1C	-2%
COc1ccc(CCNc2oc(-c3ccco3)nc2C#N)cc1	-6%
O=C1Cc2ccccc2N1c1ccccc1	-1%
COC(=O)c1ccc(C(NC(=O)OCc2ccccc2)/C(=C/[C@@H](C)C(=O)Nc2ccc(OC)cc2)c2cccnc2)cc1 (stereo partly drawn)	74%
CCOC(=O)c1oc2ccccc2c1NC(=O)CN1CCN(C)CC1	39%
Cc1nc2ccccc2c2oc(C(=O)NC3CC3)cc12	5%
O=C(/C=N/O)NCCCN1CCCCCC1	9%
CCc1ccccc1NC(=O)c1ccc(F)c(S(=O)(=O)N2CCC(C(N)=O)CC2)c1	29%
CN(C)c1ccc(-c2nc(NCc3cccnc3)c3ccccc3n2)cc1	17%
C=CCn1c(SCn2nnc3ccccc3c2=O)nnc1-c1ccc(F)cc1	12%

Brought forward from above: 3 compounds; new compounds follow.
SMILES	AmpC nodet inh
CCc1ccccc1NC(=O)c1ccc(F)c(S(=O)(=O)N2CCC(C(N)=O)CC2)c1	29%
CN(C)c1ccc(-c2nc(NCc3cccnc3)c3ccccc3n2)cc1	17%
C=CCn1c(SCn2nnc3ccccc3c2=O)nnc1-c1ccc(F)cc1	12%
O=C(c1cc(C(F)(F)F)cc(C(F)(F)F)c1)N1CCC2(CCCN(c3ccccn3)C2)CC1	99%
CCC(c1nnnn1C(C)(C)CC)N(CCCO)Cc1cc2cccc(C)c2[nH]c1=O (stereo not drawn)	102%
CC(Cc1ccccc1)C(=O)NCC1CC1 (stereo not drawn)	6%
Cc1noc(C)c1-c1ccc2ncnc(Nc3ccc(F)cc3)c2c1	7%
COc1cc2c(cc1O)[C@H]1Cc3ccc(OC)c(O)c3CN1CC2	-8%[12.8 µM]
O=C(CSc1nc2ccccc2c(=O)n1CCCO)NCc1ccccc1	22%
CCOc1ccc(C2C(C(=O)c3ccco3)=C(O)C(=O)N2Cc2cccnc2)cc1OC (stereo not drawn)	-5%
Nc1nc(-c2cccc([N+](=O)[O-])c2)cc(-c2cc(-c3cccc([N+](=O)[O-])c3)nc(N)n2)n1	-19%[5.75 µM]
CC1(C)Cc2ccccc2C2CC(O)C(=O)N21 (stereo not drawn)	8%
CCC1CCCCN1Cc1ccc(OC)c(OC)c1 (stereo not drawn)	0%
O=C(CSc1nncs1)NC(=O)NCc1ccccc1	-14%
COc1cc2c(cc1OC)CN(C(=O)CSc1nnc(C)s1)CC2	-2%
COc1cccc(Cn2c(=O)c(-c3cccs3)nc3cnc(N4CCNCC4)nc32)c1	98%
O=C(O)c1ccccc1C(=O)NCc1cccnc1	-9%
Cc1nn(Cc2ccccc2)c2c1C(c1ccncc1)C(C#N)=C(N)O2 (stereo not drawn)	0%
CC[N+](=O)[O-]	-11%
CCCc1nc2sc3c(c2c(=O)n1N)CCC3	0%
O=C1CSC(=O)N1CC(O)COc1ccc(Cl)cc1 (stereo not drawn)	12%
COC(=O)c1c(C(=O)OC)c(C)n(Cc2cccnc2)c1C	-3%
Cn1c(Cc2cccs2)nnc1SCc1nc2ccccc2[nH]1	-7%
c1ccc(CN2CCN(c3nc(-c4ccccc4)nc(-n4ccnc4)n3)CC2)cc1	80%
O=C(CCc1ccccc1)NCCCN1CCOCC1	3%
COc1cnn(-c2ccccc2)c(=O)c1N(C)C	-19%
CCOc1ccccc1Nc1ncnc2ccccc12	12%
O=C(CS(=O)(=O)Cc1ccccc1)Nc1cccnc1	4%
O=C(COC(=O)C1COc2ccccc2O1)NC1CCS(=O)(=O)C1 (stereo not drawn)	-11%
O=C(O)CCC(=O)CCC(=O)c1ccc(Cl)cc1	6%
Cc1ccc(NC(=O)NCCc2ccc(S(N)(=O)=O)cc2)cc1	-4%
C[C@]12CCC(=O)C[C@@H]1CC[C@@H]1[C@@H]2CC[C@]2(C)[C@@H](O)CC[C@@H]12	9%
CCCCNC(=O)CCCn1c(=O)[nH]c2ccc(Br)cc2c1=O	4%
COc1cccc(NC(=O)C2CCCN(S(=O)(=O)c3cccc4cccnc34)C2)c1 (stereo not drawn)	18%
O=C(O)CCNS(=O)(=O)c1ccc2c(c1)Cc1ccccc1-2	1%
COc1cccc(-n2c(C)nnc2SCC(=O)Nc2ccccc2N2CCOCC2)c1	112%
O=C(CN(C(=O)c1cc2c(s1)CCC2)C1CCCC1)NCc1cccs1	-3%
Cc1ccc2c(NC(=O)C3CC3)c(C)ccc2n1	-8%
O=C(NC1CCCCCC1)c1cc(S(=O)(=O)N2CCOCC2)ccc1N1CCCCC1	117%
CC(C)(C)c1cc(NC(=O)COC(=O)c2ccc3c(=O)n4c(nc3c2)CCC4)n(-c2ccccc2)n1	125%
Cc1cc(NS(=O)(=O)c2ccc(OCCNS(C)(=O)=O)cc2)no1	-8%
CC(C)Cn1c(N)c(C(=O)NCc2cccs2)c2nc3ccccc3nc21	8%
Cc1ccc(S(=O)(=O)Nn2c(C)nnc2-n2nc(C)cc2C)cc1	-10%
CCCc1cc(C(=O)Nc2sc(C)c(CC)c2C#N)no1	4µM*[single pt active]
CCOC(=O)C(NC(=O)c1ccccc1)=C1CCCCC1	-1%
Fc1ccc(Cn2nnnc2CN2CCN(C3CCCC3)CC2)cc1	6%
COc1ccc(N2CCN(S(=O)(=O)c3cccs3)CC2)cc1	-1%
Cc1ccc(NC(=O)c2c(O)c3ccccc3n(C)c2=O)nc1	59%
Cc1cc2cc(CNC(=O)C3CC3)ccc2n1C	-3%
O=C(COC(=O)C1c2ccccc2Oc2ccccc21)NC1CCS(=O)(=O)C1 (stereo not drawn)	2%
COc1ccc(N(C(=O)Nc2ccc(Cl)cc2)C2=NCCC2)cc1	33%
Cc1cc(=O)oc2cc(OCC(O)CN3CCc4ccccc4C3)ccc12 (stereo not drawn)	13%
Cn1c(=O)[nH]c(=O)c2c1nc(CN1CCN(c3cccc(Cl)c3)CC1)n2Cc1ccccc1Cl	129%
Other entries follow.
SMILES	AmpC nodet inh
CN(C)CCCNCCCNC(=O)c1ccco1	-12%
O=C(c1ccc(-n2cnnn2)cc1)N1CCN(C(c2ccccc2)c2ccccc2)CC1	146%
CCOC(=O)C1CCN(Cc2ccc(F)c(Br)c2)CC1	18%
COc1ccc(CNC(=O)c2cc(-c3ccccc3O)n[nH]2)cc1	-7%
Cc1cc(C)n2nc(S(=O)(=O)N(C)c3ccccc3)nc2n1	16%
COc1ccccc1N(CC(=O)NC1CCCCC1)C(=O)CCC(=O)Nc1ccccn1	53%
CCCn1nc(C(=O)Nc2cc(C(=O)OC)ccc2C)c2ccccc2c1=O	2%
Cc1noc(N)c1C(=O)Nc1ccc(F)cc1	-7%
Cc1cc(N2CCCC2)nc(-c2ccccc2O)n1	5%
FC(F)(F)c1cc(-c2ccccc2)nc(-n2cncn2)n1	13%

3 consecutive records out of the list so far, for reference:
SMILES	AmpC nodet inh
Cc1noc(N)c1C(=O)Nc1ccc(F)cc1	-7%
Cc1cc(N2CCCC2)nc(-c2ccccc2O)n1	5%
FC(F)(F)c1cc(-c2ccccc2)nc(-n2cncn2)n1	13%

Going on with the list:
SMILES	AmpC nodet inh
Cc1ccccc1N(CC(=O)NCc1ccncc1)S(C)(=O)=O	-10%
O=C(O)c1cc2ccccc2n1-c1ccccc1	2%
Nc1nnnn1NCc1cccc(OCc2ccccc2)c1	-4%
O=C(COC(=O)CCC(=O)c1ccc2c(c1)OCCO2)NCc1ccc2c(c1)OCO2	14%
N#C/C(C(N)=O)=c1/ccc2c(c1)N1C3=C(CCCC3)CC3CCCCC31N=2 (stereo not drawn)	73%
C=CCn1c(SCC(=O)Nc2ccccc2CC)nnc1-c1ccncc1	17%
CNS(=O)(=O)c1cc(OCC(N)=O)c(C)cc1Cl	-4%
O=C(CN1C(=O)c2ccccc2C1=O)N1CCN(c2ccccn2)CC1	9%
COC(=O)C1CCN(C(=O)COC(=O)c2n[nH]c3ccccc23)CC1	26%
CCN(CC)CCN(Cc1cc2cc(C)ccc2[nH]c1=O)C(=O)Nc1ccccc1OC	20%
COc1ccccc1CC(=O)Nc1ccc(O)cc1C(=O)O	-10%
COc1ccccc1NC(=O)Nc1c(C)n(C)n(-c2ccccc2)c1=O	9%
C/C=C/c1ccc(OCCCN2C(=O)NC(C)(C)C2=O)c(OC)c1	67%
COC(=O)COc1ccc2c(=O)c(Oc3ccccc3)c(C)oc2c1	4%
CCOC(=O)c1cnn(-c2cc(C)nc3c(-c4ccccc4)c(C)nn23)c1N	75%
COc1ccc(C)cc1NS(=O)(=O)c1cn(C)c(=O)n(C)c1=O	30%
CCCC(=O)Nc1ccc(N2CCN(C(=O)c3cccs3)CC2)cc1	2%
CCCCOc1ccccc1NC(=O)CSc1nnnn1C(C)(C)C	15%
COc1ccc(C2C(C#N)=C(N)Oc3c2oc(CO)cc3=O)c(OC)c1OC (stereo not drawn)	-10%
COC(=O)c1c(-c2cc(OC)c(OC)c(OC)c2)c2ccc(OCc3ccccn3)cc2c(=O)n1-c1ccc(N)cc1	158%
COCCCn1c(=N)c(C(=O)NCc2ccc3c(c2)OCO3)cc2c(=O)n3cccc(C)c3nc21	20%
COc1ccc(CN(C(=O)c2oc3ccccc3c2C)C2CCS(=O)(=O)C2)cc1OC (stereo not drawn)	112%
O=C(c1cc(S(=O)(=O)N2CCCCC2)ccc1F)N1CCCCC1	9%
O=C1CSC(c2cn(-c3ccccc3)nc2-c2cc3ccccc3oc2=O)N1Cc1ccco1 (stereo not drawn)	32%
Cc1cc(C)n2nc(S(=O)(=O)NC3CCCCC3)nc2n1	2%
O=C(O)CCc1nc(-c2ccccc2)no1	-10%
COC(=O)C(C(=O)OC)=C(/C=C/N(C)C)N(C)C	0%
COc1ccc(NC(=O)c2nnn(Cc3ccc(SC)cc3)c2N)c(OC)c1	-15%
Cc1ccc(/C=c2\s/c(=C(/C#N)C(=O)N3CCCC3)n(Cc3ccco3)c2=O)s1	7%
C=CC(=O)OCC(C)C	-4%
Cc1c(NC(=O)Oc2ccccc2)sc(=S)n1C	-6%
O=C(Cn1c(SCC(=O)N2CCCc3ccccc32)nc2ccccc21)N1CCCC1	52%
O=C(NCc1ccc2c(c1)OCO2)c1cccc(F)c1	-4%
CCc1c(C)sc(NC(=O)c2cccs2)c1C(=O)OC(C)C	-1%
c1ccc(-c2ccc(-c3nc(-c4ccncc4)no3)cc2)cc1	8%
Brc1ccc(C2=Nn3c(nnc3-c3ccncc3)SC2)cc1	8%
C=CCn1cnc2c(c1=O)c1nc3ccccc3nc1n2/N=C/c1cccc(OC)c1	90%
CC1C2C(c3ccccc3)N(C)C(=O)N(C)C2N(C)C(=O)N1C (stereo not drawn)	-6%

An excerpt from above in order of SMILES length, low to high.
SMILES	AmpC nodet inh
O=C(NCc1ccc2c(c1)OCO2)c1cccc(F)c1	-4%
CCc1c(C)sc(NC(=O)c2cccs2)c1C(=O)OC(C)C	-1%
c1ccc(-c2ccc(-c3nc(-c4ccncc4)no3)cc2)cc1	8%
CC1C2C(c3ccccc3)N(C)C(=O)N(C)C2N(C)C(=O)N1C (stereo not drawn)	-6%

Bioassay records deposited in PubChem by National Center for Advancing Translational Sciences (NCATS).

Only part of the results is shown; rates above refer to the full screens.
